miR-21 reporter – qHTS Assay for Modulators of miRNAs and/orActivators of miR-21. Potency, µM (series often up to 38.3 µM), inactives show top-dose reporter change, positive = more light. HeLa miR-21 FLuc reporter, luciferase, 48 h. 340,000 tested, under 10 active; active = well fitted rising curve with a large enough effect; inconclusive = small, poorly fitted or top-dose-only effect; inactive = no such curve, though single readings can be large or run the other way;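 also: % of control where 0% means no effect; miR-21 action dims this reporter so a rising signal means less miR-21 action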
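Using DMEM plus 10% FBS, HeLa miR-21-FLuc cells are incubated with test compounds (final up to about 40uM) for 48 hours; firefly luciferase signal is then imaged following reagent-mediated lysis.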
Rango-impB inh – qHTS Assay for Inhibitors of Rango (Ran-regulated importin-beta cargo) - Importin beta complex formation. 340,000 compounds, 0.031% hits. Importin subunit beta-1 (Homo sapiens), Q14974. Rango CFP/YFP FRET sensor + importin beta, 45 min. Potency, µM (titrated, usually from 92.2 µM), inactives show at the top dose inhibition of complex formation; active = rising FRET ratio curve, often small or poorly fitted; inconclusive = mostly compound fluorescence or quenching in the first reads; inactive = flat curves in all reads;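 also: potency is read from the fitted curve at half-maximal effect; 0% = DMSO wells and 100% = buffer wells lacking importin beta; nearly all actives have a fitted effect of over 15% in size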
Target sequence (Q14974 whole entry, looked up): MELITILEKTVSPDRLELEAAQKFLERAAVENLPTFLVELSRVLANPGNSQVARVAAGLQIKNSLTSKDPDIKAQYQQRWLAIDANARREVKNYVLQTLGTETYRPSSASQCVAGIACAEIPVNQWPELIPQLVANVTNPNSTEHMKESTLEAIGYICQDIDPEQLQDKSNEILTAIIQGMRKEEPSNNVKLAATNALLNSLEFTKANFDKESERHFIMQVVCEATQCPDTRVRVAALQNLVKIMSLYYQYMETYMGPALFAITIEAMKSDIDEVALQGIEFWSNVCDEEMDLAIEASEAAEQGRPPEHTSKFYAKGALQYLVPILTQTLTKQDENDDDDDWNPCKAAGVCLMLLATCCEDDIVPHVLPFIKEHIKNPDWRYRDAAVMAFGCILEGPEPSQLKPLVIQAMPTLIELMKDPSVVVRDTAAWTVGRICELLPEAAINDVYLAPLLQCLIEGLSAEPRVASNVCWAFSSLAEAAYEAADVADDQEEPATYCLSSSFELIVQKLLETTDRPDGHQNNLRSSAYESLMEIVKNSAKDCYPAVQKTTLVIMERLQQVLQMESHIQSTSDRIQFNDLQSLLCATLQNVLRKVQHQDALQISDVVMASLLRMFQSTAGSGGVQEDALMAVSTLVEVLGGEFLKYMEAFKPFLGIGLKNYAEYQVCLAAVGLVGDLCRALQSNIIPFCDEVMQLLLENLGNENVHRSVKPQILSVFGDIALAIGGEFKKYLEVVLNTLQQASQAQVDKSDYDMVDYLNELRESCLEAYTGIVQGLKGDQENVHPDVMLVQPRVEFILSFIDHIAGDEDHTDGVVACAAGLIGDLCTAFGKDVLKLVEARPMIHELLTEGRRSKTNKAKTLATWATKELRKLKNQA
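FRET biosensor Rango (snurportin 1 IBB between N-terminal EYFP and C-terminal Cerulean), 50 nM in PBS/1 mM DTT/0.02% Tween-20/0.1% BSA, preincubated 5 min RT with compound; 0.125 microM importin beta added, 45 min RT, CFP/YFP FRET ratio read.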
Rango dissoc inh – qHTS Assay for Inhibitors of RanGTP induced Rango (Ran-regulated importin-beta cargo) - Importin beta complex dissociation. Snurportin-1 (Homo sapiens) + GTP-binding nuclear protein Ran (Homo sapiens) + Importin …. Biochemical FRET Rango-importin beta, RanGTP-induced dissociation. Potency, µM (titrated, usually from 46.1 µM), without a hit: top-dose activity change, negative = inhibition. 340,000 compounds, 0.071% hits. AID 540253, 2011; active means falling FRET ratio curve, often poorly fitted, with flat reads before Ran was added; inconclusive means other falling curves, or compound fluorescence or quenching; inactive means flat or rising ratio curve;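 also: potency is read from the fitted curve at half-maximal effect; % of control where 0% means no effect; nearly all actives have a fitted effect of over 45% in size; -100% = wells without RanGTP and RCC1; the record marks most hits as doubtful in a second field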
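Two FRET readings bracket the reaction: one 5 min after compound meets Rango–importin beta, another 45 min after RanGTP-RCC1 (0.6 uM Ran, 0.2 uM RCC1, 2 mM GTP) is added. Only the second defines inhibition.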
GLA inh pH 4.5 – qHTS Assay for Inhibitors of Human alpha-Galactosidase at pH 4.5; Alpha-galactosidase A (Homo sapiens), P06280; purified enzyme, 4-MU-alpha-Gal fluorescence, pH 4.5; activity change, negative = inhibition, % at 105 µM; 230,000 tested, under 10 active; AID 1467, 2008; inconclusive = small, poorly fitted or top-dose-only inhibition, or a rising curve; inactive = flat fitted curve, though single readings scatter; no compound was filed as active;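 also: 0% = full activity with enzyme and -100% = basal without enzyme; dose as in the result columns while the protocol names 77 µM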
* = called active by the depositor; ? = inconclusive; . = not tested or not shown; & = joins results of further samples.

miR-21 reporter	Rango dissoc inh	Rango-impB inh	GLA inh pH 4.5	structure
8%	22%	0.0%	6	COC(=O)c1ccc(C(=O)OC)c(NC(=O)CS(=O)(=O)Cc2ccccc2)c1
.	-10%	1.1%	.	COc1cc(N)c(Cl)cc1C(=O)OCC(=O)Nc1cccnc1Cl
-14%	1%	?	5	CCNc1c(N)c(=O)oc2ccccc12
-5%	16%	1.9%	-3	COc1cc(/C=N/Nc2ccc(F)cc2F)cc(OC)c1OC
-26%	-10%	-3.8%	-11	Cc1cc(C)c(C#N)c(SCc2ccccc2C)n1
-5%	1%	3.2%	.	Clc1nc(NC2CCCC2)nc(N2CCOCC2)n1
14%	5%	-2.3%	-10	COC(=O)c1[nH]nc(C(=O)OC(C)(C)C)c1-c1ccccc1
-8%	11%	0.0%	-2	CC1CN(C(=O)C(Sc2ccccc2)c2ccccc2)CC(C)O1 (stereo not given)
-2%	4%	3.1%	.	CC(C)C[C@H](NC(=O)N1CCn2c1nc1ccccc12)C(=O)NCC1CCCO1 (stereo not given in full)
-34%	0%	2.4%	-1	c1ccc(N2CCN(c3ncccn3)CC2)cc1
.	11%	1.4%	.	C=CC[C@@H](CC(=O)N(CCO)Cc1ccccc1)C(=O)NC[C@@H](OC(=O)[C@@H](CC=C)Cc1ccc(F)cc1)c1ccccc1
.	0%	8.5%	.	Cc1ccc(-c2nn(-c3ccc(F)cc3)cc2C(=O)NCC2CCCO2)cc1 (stereo not given)
-14%	8%	?	-9	CCOC(=O)c1cccc(NC(=O)/C=C/c2ccc([N+](=O)[O-])cc2)c1
-21%	-12%	0.9%	-5	CCCCn1c(=O)[nH]c(=O)c2c1nc(-c1cc3c(cc1Br)OCO3)n2C
.	-8%	-0.1%	.	OC/C(Br)=C(\Br)CO
-2%	10%	0.2%	5	C[C@H]1CC[C@H]2C(=O)N[C@H](Cc3ccccc3)C(=O)N2[C@@H]1c1ccccc1
?	-10%	-4.7%	-6	C/C(=N\NC(=O)C(C)n1nc(C)c([N+](=O)[O-])c1C)c1ccccc1O (stereo not given)
.	-27%	?	.	CCCCNc1c(-c2ccc(-c3ccc(C(C)=O)cc3)c(OC)c2)nc2cc(C)ccn12
-1%	2%	-2.9%	5	CCOC(=O)CC1C(=O)NCCN1Cc1cccs1 (stereo not given)
-3%	15%	-0.7%	.	COC(=O)C1CN(C(=O)COc2cccc(C)c2C)c2ccccc2O1 (stereo not given)
0%	7%	2.0%	.	CSc1ccccc1NC(=S)NC1CCCC1
19%	-16%	-3.6%	-8	COc1cccc(/C=N/Nc2ncccc2[N+](=O)[O-])c1OC
0%	-9%	5.3%	-3	CNS(=O)(=O)c1cnccc1N1CCN(c2cccc(C(F)(F)F)c2)CC1
-4%	12%	-2.2%	-2	COCCNCC(=O)N1CCCCCC1
-1%	-8%	-8.2%	6	CCOC(=O)N1CCC(N(CCN(C)C)C(=S)Nc2ccccc2C)CC1
-49%	8%	0.1%	.	CC(=O)c1ccc(NC(=S)Nc2cccc3ccccc23)cc1
0%	-10%	-0.8%	-3	CC(=O)Nc1ccc(S(=O)(=O)NCc2ccc(C)cc2)cc1
-3%	7%	-2.9%	.	COc1ccccc1NC(=O)c1cc(-c2ccc(C)o2)nc2ccccc12
-1%	-4%	-9.0%	.	CCC(C)(C)NC(=O)C(C(C)C)N(CC1CCCO1)C(=O)CNS(=O)(=O)c1ccc(F)cc1 (stereo not given)
-22%	11%	3.7%	-3	FC(F)(F)c1cccc(OCc2noc(-c3ccsc3)n2)c1
-1%	7%	-0.7%	7	CC(=O)c1cccc(NC(=O)c2ccc(C(=O)Nc3cccc(C(C)=O)c3)nc2)c1
-3%	-7%	0.0%	.	O=C(NCCN1CCOCC1)C(=O)NCC1OCCN1S(=O)(=O)c1cc(F)ccc1F (stereo not given)
-15%	2%	-0.3%	4	CS(=O)(=O)Nc1ccc(Br)cc1C(=O)c1ccccc1
-1%	1%	-3.8%	4	CCO[C@H]1OC(C(=O)O)=C[C@@H](c2ccc(C(F)(F)F)cc2)[C@@H]1CCCO
.	-16%	-3.8%	.	CCN(CC(=O)Nc1ccc(NC(C)=O)cc1)CC(=O)Nc1cc(C)on1
-7%	-9%	0.8%	6	CCOc1ccccc1OCC(=O)NNC(=S)NC1CCCCC1
.	-2%	0.8%	.	COc1ccccc1CNC(=O)COc1ccc(S(=O)(=O)N2CCOCC2)cc1
-2%	13%	0.1%	-2	Cc1cccc(C)c1N1CCN(S(=O)(=O)c2ccc(F)cc2)CC1
-3%	12%	0.4%	5	CCOc1cc(N2CCOCC2)c(OCC)cc1NC(=O)Cc1cn2ccsc2n1
-12%	-5%	-3.5%	.	Cc1ccc(C)c(C(=O)CCC(=O)Nc2ccc(F)cc2)c1
18%	26%	6.1%	.	Cc1ccc(NC(=O)Cn2cc(C=O)c3ccccc32)cc1C
-14%	?	?	-7	N#Cc1c(N)nc2c3c(sc(=N)c2c1N)NC(=O)CC3c1ccccc1Cl (stereo not given)
-4%	-1%	-2.2%	-21	CCc1cccc(C)c1NC(=O)Cn1c(NCCO)nc2ccccc21
-5%	-6%	-0.7%	16	Cc1cc(Cl)ccc1Oc1nc(-c2ccccc2)ncc1S(C)(=O)=O
-1%	-4%	-0.7%	-15	COc1cc(S(=O)(=O)N2CCOCC2)ccc1NC(=O)COc1ccc(N(C)S(=O)(=O)c2ccc(C)cc2)cc1
.	?	12%	.	CCC1(CC)C(=O)C2=C3C1[C@H](C(=O)OC)CC(C(=O)OC)C[C@H]3n1c(=O)n(C)c(=O)n1[C@H]2C (stereo not given in full)
.	4%	-1.4%	.	COC(=O)[C@]1(Cc2ccccc2)N[C@H](c2ccc(SC3CCCCC3)c(OC)c2)[C@@H]2C(=O)N(C)C(=O)[C@@H]21
0%	-4%	0.1%	.	Cc1cc(NS(=O)(=O)c2ccc(NC(=O)COc3ccc(Br)cc3)cc2)nc(C)n1
1%	4%	6.5%	7	Cc1ccc(C(=O)CSc2nnc(-c3snnc3C)n2C2CC2)cc1
-2%	-12%	3.6%	-8	CC1CN(C(=O)/C(C#N)=C2\N=C(NC(=O)c3ccc(F)cc3)c3ccccc32)CC(C)O1 (stereo not given)
-6%	5%	-1.1%	5	Cn1c(=O)oc2cc(S(=O)(=O)N3CCC(C(=O)N4CCN(c5ccccc5)CC4)CC3)ccc21
0%	4%	-3.6%	-13	Cc1ccc(CNC(=O)C2(NC(=O)Nc3ccc(C)cc3)CCCCC2)cc1
2%	-7%	-1.6%	10	O=C(O)C1=C[C@H](c2ccccc2)C[C@H](OCc2ccc(CO)cc2)O1
-1%	-12%	-0.8%	.	O=C(NC1CCCCC1)C(c1ccccc1)N(C(=O)c1csnn1)C1CCCC1 (stereo not given)
-7%	29%	-5.1%	5	NC(=O)C1CCN(C(=O)c2ccc(Oc3ccccc3)cc2)CC1
-1%	2%	-3.1%	16	Cc1ccc([N+](=O)[O-])cc1NC(=O)C1CCN(S(C)(=O)=O)CC1
-6%	3%	2.0%	0	COCc1cc(=O)n2[nH]c(C)cc2n1
5%&-8%	1%	-0.3%	0	Cc1ccc(Cn2cc(C(=O)c3ccc(F)cc3)c(=O)c3cc4c(cc32)OCCO4)cc1
-27%	-11%	-3.8%	-14	CCSc1ccccc1C(=O)Nc1cccc(OC)c1
-5%	37%	0.5%	.	COc1ccccc1/C=C/CN1CCCCC1

Complete entries, quoted from the list:
Profile of Cc1ccc(C(=O)CSc2nnc(-c3snnc3C)n2C2CC2)cc1 → miR-21 reporter: 1%; Rango dissoc inh: 4%; Rango-impB inh: 6.5%; GLA inh pH 4.5: 7
Profile of CCO[C@H]1OC(C(=O)O)=C[C@@H](c2ccc(C(F)(F)F)cc2)[C@@H]1CCCO → miR-21 reporter: -1%; Rango dissoc inh: 1%; Rango-impB inh: -3.8%; GLA inh pH 4.5: 4
Profile of CS(=O)(=O)Nc1ccc(Br)cc1C(=O)c1ccccc1 → miR-21 reporter: -15%; Rango dissoc inh: 2%; Rango-impB inh: -0.3%; GLA inh pH 4.5: 4

Next part
miR-21 reporter	Rango dissoc inh	Rango-impB inh	GLA inh pH 4.5	structure
3%	1%	0.7%	1	Cc1[nH]n(-c2ccccc2)c(=O)c1C(c1ccc(C(=O)O)cc1)c1c(C)[nH]n(-c2ccccc2)c1=O
-17%	-3%	-1.4%	-4	Nc1ncnc(Nc2ccccc2Cl)n1
.	-4%	-1.2%	.	C=CCN(CC=C)c1ncnc2[nH]ncc12
-10%	-9%	-3.4%	.	CCOC(=O)c1c(C)[nH]c(C)c1S(=O)(=O)NC1CCN(C(=O)OCC)CC1
.	?	?	.	O=C(C[n+]1ccc(/C=N/O)cc1)NC(=O)Nc1ccccc1
-4%	0%	4.9%	-13	NC(=Nc1ccc(N)cc1)C(N)=Nc1ccc(N)cc1
-57%	?	?	-4	Cc1cc(/C=C2/C(=O)N(C)C(=S)N2C)c(C)n1C1CC1
-2%	14%	-5.3%	.	CN1CCCN(C(=O)c2cccc(Br)c2)CC1
-50%	?	?	0	COCCNc1cc(C)nc2cc(-c3ccc(C)cc3)nn12
-6%	0%	0.5%	8	Cc1cccc(Nc2nnc(C)c(=O)n2N)c1
-25%	3%	-1.0%	-1	CC/C(=N\NC(=O)Nc1ccccc1)c1ccccc1
-18%	11%	0.5%	9	COCC(C)NS(=O)(=O)c1ccc(NC(=O)c2ccccn2)cc1 (stereo not given)
-3%	-5%	-1.9%	0	OCC(O)CSc1nc(-c2ccccc2)nc2c1CCC2 (stereo not given)
2%	18%	-1.6%	.	O=C(CN1C(=O)c2ccccc2S1(=O)=O)NCCc1ccccc1
-5%	-10%	-1.1%	6	Cc1nn(CC(=O)NCCN2CCOCC2)c(=O)c2ccccc12
0%	9%	0.1%	3	O=C(CSc1nnc(-c2ccccn2)n1Cc1ccccc1)NC1CCCC1
-2%	-1%	3.7%	.	O=C(CN(Cc1ccccc1)C(=O)CCC(=O)Nc1nccs1)NCC1CCCO1 (stereo not given)
3%	11%	3.3%	.	COc1cccc(NC(=O)CS(=O)(=O)Cc2nc(-c3ccc(C)cc3)oc2C)c1
1%	-10%	-6.1%	3	O=S(=O)(Nc1nccs1)c1ccc(NS(=O)(=O)c2cccs2)cc1
-43%	1%	-1.2%	.	NS(=O)(=O)c1cccc(NC(=O)CCCC2CCCCC2)c1
-3%	-17%	2.3%	-1	CCN(CC)C(=O)CSc1nnc(CCNC(=O)OC(C)(C)C)o1
1%	-17%	-3.9%	-4	CC(=O)c1cc(C)ccc1OC(=O)CCN1C(=O)C2C3c4ccccc4C(c4ccccc43)C2C1=O (stereo not given)
0%	-5%	-1.1%	-1	C=CCn1c(SCC(=O)NCC(=O)OCC)nnc1-c1cccc(OC)c1
.	4%	0.3%	.	COc1ccc(C(C)=O)cc1CSc1ccc(S(=O)(=O)N2CCCCC2)cn1
.	-14%	0.3%	.	O=C(CC1SC(N2CCCCC2)=NC1=O)Nc1cccc(C(=O)NCc2ccccc2)c1 (stereo not given)
-4%	-12%	0.2%	4	O=C(Nc1cccc2ccccc12)c1cn(-c2ccccc2)nc1-c1cccs1
-3%	-1%	-1.4%	-15	Cc1noc(C(=O)NCc2cccnc2)c1Cl

Screening data: PubChem BioAssay, National Center for Advancing Translational Sciences (NCATS)

These rows are one share of the data (hit frequency here may not be typical).
